High-throughput results as filed in PubChem BioAssay.
INS promoter inh: TRM-6 insulin promoter activity inhibition; TRM-6 cells (human fetal islet line), insulin promoter-eGFP reporter, imaging; reporter expression induced with tamoxifen; inhibition, % at 2 µM; hit rate 0.9% among 130,000;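 active means inhibition above the mean plus 3 SD, with well images judged a real hit on visual review, cut at about 60% in these data, passing the limit was not always enough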
GALR2 agonist: GALR2 (human) receptor agonism. O43603. GALR2-expressing cells, agonist activation read-out. activation, %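 (tested at 5 µM)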. hit rate 0.48% among 140,000. AID 803;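 active means above mean plus 3 SD of all compounds, about 5% in these data, not always enough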;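 further: 0% = vehicle buffer wells and 100% = reference agonist at full effect; tested in CHO reporter cells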
Target sequence (O43603 whole entry, looked up): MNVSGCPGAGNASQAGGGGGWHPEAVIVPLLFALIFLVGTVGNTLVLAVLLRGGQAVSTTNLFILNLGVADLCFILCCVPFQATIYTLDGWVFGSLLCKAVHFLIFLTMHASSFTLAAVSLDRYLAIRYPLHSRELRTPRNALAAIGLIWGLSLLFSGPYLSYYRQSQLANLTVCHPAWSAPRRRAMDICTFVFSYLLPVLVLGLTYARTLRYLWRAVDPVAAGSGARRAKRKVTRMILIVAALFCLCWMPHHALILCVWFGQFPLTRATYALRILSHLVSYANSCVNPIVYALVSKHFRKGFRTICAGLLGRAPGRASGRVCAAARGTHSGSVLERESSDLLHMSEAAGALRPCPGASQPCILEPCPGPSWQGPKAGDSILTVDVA
HSV replic up: increases HSV replication in cells. AID 1956. hit rate 0.005% among 220,000. HSV replication augmentation in cells, fold increase. maximum fold increase;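 active means peak rise of 1.5-fold or more in the series; tested in PC3 cells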;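 further: first round at 10 µM; read as green reporter fluorescence; hits show the peak of a series up to 25 µM; 1 = signal of infected wells without compound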
RGS16-Gao HTS: regulators of human RGS16-Galphao interaction | O15492+P09471 | AID 1441 | hit rate 0.38% among 220,000 | bead-based flow cytometry RGS16-Galphao binding, fluorescence; actives lie on both sides | binding response (% of control), % at 10 µM;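 active means below 25% or above 175%, edge rows of some plates excepted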;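 further: Galphao activated by GDP with aluminum fluoride before binding; 100% = wells without compound and 0% = beads without RGS; some results beyond the cut were filed as inactive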
Target sequence (O15492 whole entry, looked up): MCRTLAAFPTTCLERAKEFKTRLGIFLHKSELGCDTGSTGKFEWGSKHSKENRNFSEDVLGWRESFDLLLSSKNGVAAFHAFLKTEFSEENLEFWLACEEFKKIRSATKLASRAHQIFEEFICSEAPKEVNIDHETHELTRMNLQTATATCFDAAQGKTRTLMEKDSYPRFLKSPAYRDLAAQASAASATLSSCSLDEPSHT
Target sequence (P09471 whole entry, looked up): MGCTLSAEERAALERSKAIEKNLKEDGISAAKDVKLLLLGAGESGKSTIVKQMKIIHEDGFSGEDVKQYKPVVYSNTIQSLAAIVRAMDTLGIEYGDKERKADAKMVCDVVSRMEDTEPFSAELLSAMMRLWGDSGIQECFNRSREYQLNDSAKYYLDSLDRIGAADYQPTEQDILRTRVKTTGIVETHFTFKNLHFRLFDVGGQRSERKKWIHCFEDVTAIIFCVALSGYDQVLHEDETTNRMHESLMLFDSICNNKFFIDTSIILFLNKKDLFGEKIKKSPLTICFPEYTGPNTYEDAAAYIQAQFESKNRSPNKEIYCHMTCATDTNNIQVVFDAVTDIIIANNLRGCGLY
PKD1 kinase inh: inhibitors of human PKD1 kinase; Q15139; PKD1 kinase fluorescence polarization assay; inhibition, %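 (about 10 µM by stock and volumes)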; hit rate 0.056% among 200,000;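 active means inhibition of 50% or more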;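 further: controls were vehicle for no effect and a reference inhibitor for full effect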
INS promoter inh cell count: recorded beside INS promoter inh, whose call it bears; normalized cell count, %; measured here: cell count, toxicity; reference of the scale not given here;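 cells exposed to compound for 48 h; stained nuclei by imaging scaled within each plate; lower means fewer cells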
HSV replic up primary fold: also measured in HSV replic up; calls as there; fold increase; compound at 10 µM; measured here: primary screen fold increase 10 uM; tested in PC3 cells;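 GFP signal in the first replicate; 1 = infected wells without compound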
* = called active by the depositor; i = inactive; · = not tested or not shown; [ ] = remark or other dose.

Values run as follows: INS promoter inh cell count	HSV replic up primary fold	HSV replic up	PKD1 kinase inh	INS promoter inh	GALR2 agonist	RGS16-Gao HTS
Cc1ccc2ccc(C)[n+](CCCS(=O)(=O)[O-])c2c1
→ 100	0.73	i	1	31	·	97
Cc1cc(Cl)ccc1Oc1nc(-c2ccc(F)cc2)ccc1C#N
→ ·	0.83	i	0	·	-1.2	127
CCN1CCN(C(=S)NCC(C)C)CC1
→ ·	0.88	i	-14	·	-1.2	103
COc1ccccc1NNC(=O)c1cccnc1Oc1ccccc1
→ ·	1.1	i	·	·	·	105
CC(C)Cc1nc2ccccc2[nH]1
→ ·	1	i	·	·	·	102
CCc1cc2c(N[C@@H](C)C(=O)O)ncnc2s1
→ ·	1.1	i	-3	·	-1.7	97
CCCCOc1ccc2ccccc2c1C=O
→ 117	0.86	i	-4	0	0.0	102
O=C(CN1C(=O)c2ccccc2C1=O)NCC(=O)OCC(=O)c1ccc(Br)cc1
→ ·	·	·	-7	·	-3.1	103
COc1ccc(CN(Cc2cccn2C)S(=O)(=O)c2ccccc2)cc1
→ ·	1.1	i	·	·	·	99
N#C/C(=C\c1ccccc1[N+](=O)[O-])c1nc(C2CC2)cs1
→ 87	0.84	i	1	19	-2.0	103
O=S(=O)(Nc1nc2ccccc2nc1Cl)c1ccc(Cl)cc1
→ 80	0.97	i	-10	-3	-1.0	97
COc1ccccc1C1/C(=C(/O)c2ccc(OC(C)C)cc2)C(=O)C(=O)N1c1cc(C)on1 (centres undefined)
→ ·	1	i	-7	·	-3.8	101
Cc1ccc(OCCSc2nc(NC(C)C)nc(NC(C)C)n2)cc1
→ 145	1.1	i	-13	22	-0.1	92
O=C(COC(=O)C12CC3CC(CC(O)(C3)C1)C2)Nc1ccccc1OC(F)F
→ ·	0.9	i	5	·	-1.8	101
O=C(NNS(=O)(=O)c1ccc2ccccc2c1)c1cccnc1
→ 88	1.1	i	3	8	-2.4	100
Cc1nc2c(C)cccn2c1/C(O)=C1\C(=O)C(=O)N(CCN(C)C)C1c1ccccc1 (centres undefined)
→ ·	0.88	i	·	·	·	106
CCCn1nc2cc(C(=O)NCc3ccc(C)cc3)ccc2c1OC
→ ·	1.1	i	0	·	-2.8	96
C#CCOC(=O)c1csc2nnsc12
→ 45	1.1	i	-12	-300	0.4	68
CC1=C(C(N)=O)C(c2ccccc2F)NC(=O)N1 (centres undefined)
→ 110	0.87	i	-6	35	-4.4	107
O=C(NC1CCCCC1)C(c1ccco1)N(C(=O)C(F)(F)F)C1CC1 (centres undefined)
→ 115	0.98	i	1	0	0.2	88
O=C1CCCc2nc(N3CCc4ccccc43)ncc21
→ ·	0.81	i	21	·	-0.7	104
CCOC(=O)c1nc(-c2ccc3c(c2)OCO3)[nH]c1C
→ ·	0.82	i	-11	·	0.1	99
Cc1ccc(CNC(=O)C(Cc2ccccc2)NS(=O)(=O)c2cccs2)cc1 (centres undefined)
→ 97	0.82	i	-6	-96	-2.0	106
CCCC(=O)N1CCN(Cc2ccc3c(c2)OCO3)CC1
→ 107	0.93	i	-4	57	0.4	109
Cc1cccc(CCNC(=O)C2CCN(S(=O)(=O)c3ccccc3)CC2)c1
→ 117	1.1	i	6	-21	·	52
COc1ccc(N(CC(=O)Nc2ccc(OC)c(Cl)c2)S(=O)(=O)c2c(C)noc2C)cc1
→ ·	0.87	i	-1	·	-1.9	227*[activator]
Cc1ccc2nc(SCC(=O)N(CC(C)C)c3c(N)n(CC(C)C)c(=O)[nH]c3=O)[nH]c2c1
→ 87	1	i	-5	31	40*	179
Cn1c(=O)c2[nH]c(COc3ccc(C(C)(C)C)cc3)nc2n(C)c1=O
→ ·	0.98	i	·	·	·	105
CC(=O)Nc1ccc(C(=O)NC(CC(=O)O)c2ccc(Cl)cc2)cc1 (centres undefined)
→ 111	0.77	i	0	4	-2.1	101
Cc1ncc(CO)c(/C=N/NC(=S)Nc2ccc(Cl)c(Cl)c2)c1O
→ ·	1.1	i	-1	·	·	96
COc1cc(OC)cc(/C(N)=N/O)c1
→ ·	0.93	i	·	·	·	96
[2H]c1c([2H])c([2H])c(-c2nc(N3CCCCCC3)sc2C(=O)c2ccccc2)c([2H])c1[2H]
→ ·	0.97	i	12	·	-0.9	104
Cc1ccc2c(c1)nnn2C1CCN(S(=O)(=O)c2ccc(C(=O)NC3CCCC3)cc2)CC1
→ 29	0.89	i	-9	-15	-0.6	219
CCOc1cccc2c1OC(c1cc(OC)c(OC)c(OC)c1)N1N=C(c3ccc(C)o3)CC21 (centres undefined)
→ 74	1.2	i	-2	13	-1.7	97
CSc1nc(N)nc(SCC(=O)c2ccccc2)c1C#N
→ ·	0.91	i	-14	·	0.9	97
Cc1ccc(NC(=O)CCn2nc(C)cc2C)c(C)c1
→ 85	0.71	i	8	10	-2.5	101
CCOC(=O)c1cc(=O)n2[nH]c(-c3ccc(C)cc3)cc2n1
→ ·	1	i	22	·	-2.6	100
O=C(CN1C(=O)C2C3c4ccccc4C(c4ccccc43)C2C1=O)Nc1ccccc1C(=O)O (centres undefined)
→ ·	1	i	-1	·	0.4	107
COc1ccccc1CN(Cc1cc2cc3c(cc2[nH]c1=O)OCCO3)Cc1nnnn1Cc1ccco1
→ 235	1.2	i	-11	-26	-4.2	99
O=C(Nc1nc2nc(-c3ccccc3)cc(=O)n2[nH]1)c1ccccc1
→ 140	0.98	i	3	-31	-0.5	106
C=CCn1c(-c2ccc(=O)n(Cc3ccccc3)c2)n[nH]c1=S
→ ·	1	i	1	·	·	98
Cc1csc(NC(=O)c2cccs2)n1
→ 117	0.95	i	2	-15	-1.5	60
Cc1ccc(C)c2c3c([nH]c12)-c1nonc1CC3
→ 164	0.93	i	1	-33	-1.5	99
COCCCNC(=O)Cn1ncc2ccsc2c1=O
→ ·	·	·	-9	·	-3.9	106
CCOc1ccc(-n2nnc3c(=O)n(CC(=O)NCc4ccco4)cnc32)cc1
→ ·	0.89	i	·	·	·	98
CCS(=O)(=O)N1Cc2ccccc2CC1C(=O)Nc1ncc(C)s1 (centres undefined)
→ ·	1	i	0	·	·	104
Cc1sc(NC(=S)NC(=O)c2ccco2)c(C(N)=O)c1C
→ 117	1	i	4	-21	·	100
O=C(O)Cc1csc(-c2ccccc2)n1
→ 125	0.93	i	3	21	·	99
CCOC(=O)Cn1nnc2c(sc3nc4c(c(-c5ccc(Cl)cc5)c32)CCC4)c1=O
→ 84	0.79	i	-4	12	-1.8	100
O=C(COC(=O)c1cnccn1)c1ccc(OC(=O)c2ccccc2)cc1
→ 64	1.1	i	-1	-22	0.8	97

(cont.)
Values run as follows: INS promoter inh cell count	HSV replic up primary fold	HSV replic up	PKD1 kinase inh	INS promoter inh	GALR2 agonist	RGS16-Gao HTS
CCC(Sc1nc2c(cnn2-c2ccc(Cl)cc2)c(=O)[nH]1)C(=O)OC (centres undefined)
→ 106*	0.86	i	6	80*	-0.2	110
O=[N+]([O-])c1ccc(N/N=C/c2c[nH]c3ccccc23)c(S(=O)(=O)Nc2ccc(Cl)cc2)c1
→ 61	·	·	-4	-20	-2.5	105
NS(=O)(=O)c1ccc(CNC(=O)/C=C/c2ccc(S(=O)(=O)N3CCOCC3)cc2)cc1
→ ·	0.87	i	·	·	·	106
COc1ccc2cc(C(c3nnnn3CC3CCCO3)N3CCOCC3)c(=O)[nH]c2c1 (centres undefined)
→ 96	0.87	i	-1	28	-1.4	97
O=C(Cc1n[nH]c(=O)[nH]c1=O)N/N=C/c1ccccc1
→ 114	0.89	i	-7	-37	-0.7	103
CSc1cccc(NC(=O)/C=C/c2ccco2)c1
→ 195	1.1	i	11	-17	·	91
Cc1cccc(NC(=O)c2ccc(N3CCCCC3)c([N+](=O)[O-])c2)n1
→ ·	·	·	9	·	-2.5	100
CC1(C)CC(=O)/C(=C(\O)Cc2ccccc2)C(=NCCCCCC(=O)O)C1
→ ·	1.3	i	-18	·	-0.7	105
Cc1ccc(C)c(NC(=O)CCN2CCOCC2)c1
→ 89	0.85	i	-7	31	-0.9	111
CC(=O)Nc1sc(-c2ccccc2)nc1-c1ccccc1
→ 123	0.95	i	5	64	·	103
Cc1ccc(S(=O)(=O)CC2CSc3nc4ccccc4n32)cc1 (centres undefined)
→ ·	0.95	i	8	·	-1.3	94
C=CCc1cccc2cc(C(=O)N3CCN(C(=O)c4ccco4)CC3)c(=O)oc12
→ 121	0.84	i	-9	-11	-1.2	106
Cc1cc(C)cc(NC(=O)Nc2ccc3c(c2)N(C)C(=O)CS3)c1
→ ·	0.97	i	5	·	-1.1	100
COc1ccc(/C=N/NC(=O)c2ccc(=O)n(C)c2)cc1OC
→ 95	0.99	i	-6	-20	·	106
CCOc1cc(S(=O)(=O)NCCc2cccc(C)c2)c(OCC)cc1-n1cnnn1
→ 69	0.92	i	-7	-36	-2.1	100
COc1cccc(/C=C/C(=O)c2cccc([N+](=O)[O-])c2)c1OC
→ ·	0.81	i	1	·	·	98
O=C(NCCN1CCOCC1)c1cnn2c(-c3ccccc3)cc(-c3ccccc3)nc12
→ 113	0.77	i	9	12	-1.3	104
CN(C)c1ccc(Nc2nc(N)c([N+](=O)[O-])c(N3CCOCC3)n2)cc1
→ 227	0.94	i	10	21	-0.8	99
O=C(CCNS(=O)(=O)c1ccccc1F)NCc1ccc2c(c1)OCO2
→ ·	0.96	i	-6	·	-0.7	87
COc1ccc(-c2noc(CN3CCCCC3c3nccn3C)n2)cc1 (centres undefined)
→ ·	1	i	-4	·	·	114
O=C(Cc1ccc(-n2c(=O)c3sccc3n(CC(=O)Nc3ccccc3)c2=O)cc1)NCc1ccco1
→ ·	0.91	i	-9	·	·	102
O=C(CN1CCCCC1)Nc1cc(Cl)ccc1Oc1ccccc1
→ ·	1	i	2	·	·	100
O=C(NCCN1CCOCC1)c1ccc(=O)oc1
→ ·	0.87	i	0	·	-2.7	101
Cc1csc(NC(=O)CCc2c(C)nc3cc(-c4ccc(Cl)cc4)nn3c2C)n1
→ 103	·	·	-3	0	0.9	87
CC(=O)Nc1ccccc1OCC(=O)NC(C)c1ccccc1 (centres undefined)
→ ·	1	i	-4	·	-1.0	106
NC(=S)N/N=C/c1ccc([N+](=O)[O-])cc1
→ ·	1	i	-2	·	·	113
Cc1cc(C(=O)CSc2nc(N)cc(N)n2)c(C)n1-c1cccc(F)c1
→ 116	0.84	i	12	38	0.1	106
CCOc1ccc(Nc2oc(-c3cccs3)nc2C#N)cc1
→ 105	0.87	i	-1	20	7.0	104
O=C(c1ccc(NC2=NC3CS(=O)(=O)CC3S2)cc1)N1CCc2ccccc2C1 (centres undefined)
→ ·	0.88	i	0	·	-1.2	103
COc1ccc(-c2nc(NC(=O)CSc3nnc4ccccn34)ns2)cc1
→ 114	0.9	i	2	8	-2.9	97
CCC(=O)c1ccc(OCC(O)CN2CCN(S(=O)(=O)N3CCCCC3)CC2)cc1 (centres undefined)
→ 118	0.99	i	-3	-29	-1.5	93

An excerpt from above in order of count of non-hydrogen atoms, ascending.
Values run as follows: INS promoter inh cell count	HSV replic up primary fold	HSV replic up	PKD1 kinase inh	INS promoter inh	GALR2 agonist	RGS16-Gao HTS
Cc1csc(NC(=O)c2cccs2)n1
→ 117	0.95	i	2	-15	-1.5	60
CSc1cccc(NC(=O)/C=C/c2ccco2)c1
→ 195	1.1	i	11	-17	·	91
Cc1ccc2ccc(C)[n+](CCCS(=O)(=O)[O-])c2c1
→ 100	0.73	i	1	31	·	97
O=C(Cc1n[nH]c(=O)[nH]c1=O)N/N=C/c1ccccc1
→ 114	0.89	i	-7	-37	-0.7	103
CCOc1ccc(Nc2oc(-c3cccs3)nc2C#N)cc1
→ 105	0.87	i	-1	20	7.0	104
CC(=O)Nc1ccccc1OCC(=O)NC(C)c1ccccc1 (centres undefined)
→ ·	1	i	-4	·	-1.0	106
O=C(Nc1nc2nc(-c3ccccc3)cc(=O)n2[nH]1)c1ccccc1
→ 140	0.98	i	3	-31	-0.5	106
COc1ccc(-c2nc(NC(=O)CSc3nnc4ccccn34)ns2)cc1
→ 114	0.9	i	2	8	-2.9	97
O=C(COC(=O)C12CC3CC(CC(O)(C3)C1)C2)Nc1ccccc1OC(F)F
→ ·	0.9	i	5	·	-1.8	101
COc1ccc(N(CC(=O)Nc2ccc(OC)c(Cl)c2)S(=O)(=O)c2c(C)noc2C)cc1
→ ·	0.87	i	-1	·	-1.9	227*[activator]
Cc1ccc2c(c1)nnn2C1CCN(S(=O)(=O)c2ccc(C(=O)NC3CCCC3)cc2)CC1
→ 29	0.89	i	-9	-15	-0.6	219
CCOc1cccc2c1OC(c1cc(OC)c(OC)c(OC)c1)N1N=C(c3ccc(C)o3)CC21 (centres undefined)
→ 74	1.2	i	-2	13	-1.7	97
